gsp agonist: activates gsp, the McCune-Albright syndrome mutation; gsp mutant cells, cAMP HTRF, 30 min; control for the full effect not named in the record; Potency, µM (titrated, usually from 76.9 µM), without a hit: top-dose activation (cAMP increase), most hits filed as activators; 340,000 compounds, 0.13% hits; AID 624287; active = well fitted activation curve with a large enough effect; inconclusive = small, poorly fitted or top-dose-only effect, or another doubt; inactive = no such curve, though single readings can be large or run the other way; cell line not stated here;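 note: phosphodiesterase inhibitor Ro 20-1724 added with compounds to block cAMP breakdown; potency is the fitted concentration of half-maximal effect; nearly all actives have a fitted effect of over 60% in size; about a fifth of the inactives were tested at one dose only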
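Cells stably selected in G418 were plated at 2000/well, grown 16-24 hr, then given compounds in DMSO with the PDE inhibitor […] (300 uM solution added) for 30 min at 37C; cAMP was read by HTRF.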
Sfp inh: blocks B. subtilis Sfp PPTase activity | Q9F4F7 | Biochemical Sfp PPTase activity, qHTS | Potency, µM, for inactives: max response, negative = inhibition, hits mostly inhibitors | 310,000 compounds, 3.5% hits | AID 1490; active = well fitted inhibition curve with a large enough effect; inconclusive = small, poorly fitted or top-dose-only effect, or another doubt; inactive = no such curve, though single readings can be large or run the other way;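 note: the enzyme is Sfp with the accession as filed and its product quenches rhodamine fluorescence; potency is the fitted concentration of half-maximal effect; 0% = enzyme reaction without inhibitor and -100% = no enzyme wells; top concentration of the series not given in the record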
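Buffer: 50 mM Hepes-Na pH 7.6, 10 mM MgCl2, 0.01% Nonidet P-40, 0.01% BSA. Enzyme 15 nM, pre-exposed to compound 15 min; substrates then added and fluorescence change tracked over 30 min.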
D2 PAM: potentiates the human D2 dopamine receptor allosterically | P14416 | DiscoveRx D2 beta-arrestin cells, luminescence, 90 min; 100% = 57 uM dopamine signal | 360,000 compounds, 0.23% hits | potentiation, % (concentration not given with the values); active = potentiation of 50% or more; inconclusive = 30% to 50%; inactive = 30% or less;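 note: tested on top of an EC20 dose of dopamine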
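PathHunter D2 cells, attached overnight at 37 deg C, received compound in DMSO plus dopamine at EC20 (50 nM final) for 90 min at 37 deg C. Beta-arrestin recruitment was read as luminescence after 1 h with detection reagent at ambient temperature.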
Menin MLL FP FL: inhibitors of human menin-MLL interaction, wild-type MLL peptide; 290,000 tested, under 10 active; Fluorescence polarization, fluorescein-MLL peptide displacement from menin; FP activity change, % at 61.4 µM; inconclusive = falling polarisation curve, or a change in total fluorescence; inactive = total fluorescence flat and polarisation flat or rising; no compound was filed as active; the % refers to the polarisation; negative = inhibition;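 note: % of control where 0% means no effect; inhibitors lower the polarisation; unlabelled MLL peptide was the positive control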
gsp antagonist: antagonizes gsp, the McCune-Albright syndrome mutation; 340,000 compounds, 0.4% hits; gsp-mutant cells, cAMP HTRF, 30 min; control for the full effect not named in the record; AID 624288; Potency, µM (highest dose often 76.9 µM), for inactives: at the highest dose activity change, negative = inhibition, most hits filed as inhibitors; active = falling curve of any shape with a large fitted effect; inconclusive = falling curve, mostly with a smaller effect; inactive = flat or rising curve; cell line not stated here;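 note: intracellular cAMP measured with PDE inhibitor Ro 20-1724 present during compound exposure; potency is the fitted concentration of half-maximal effect; % is set by controls: 0 for no effect and ±100 for the full control effect; nearly all actives have a fitted effect of over 65% in size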
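HTRF cAMP measurement after 30 min RT detection following 30 min, 37C compound treatment alongside […] (added as 300 uM solution) in G418-selected cells seeded at 2000/well and grown 16–24 h.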
TRPV1 PAM: enhances activation of the human vanilloid receptor TRPV1. Q8NER1. TRPV1-expressing cells, Fluo-8 calcium influx, capsaicin EC20 potentiation; host cell line not named in the record; control for the full effect not named in the record. potentiation, % at 8.33 µM. 320,000 compounds, 0.02% hits. AID 540277; active means potentiation above 80%; inconclusive means 30% to 80%; inactive means below 30%; note: 0% is about no effect
Target sequence (Q8NER1 whole entry, looked up): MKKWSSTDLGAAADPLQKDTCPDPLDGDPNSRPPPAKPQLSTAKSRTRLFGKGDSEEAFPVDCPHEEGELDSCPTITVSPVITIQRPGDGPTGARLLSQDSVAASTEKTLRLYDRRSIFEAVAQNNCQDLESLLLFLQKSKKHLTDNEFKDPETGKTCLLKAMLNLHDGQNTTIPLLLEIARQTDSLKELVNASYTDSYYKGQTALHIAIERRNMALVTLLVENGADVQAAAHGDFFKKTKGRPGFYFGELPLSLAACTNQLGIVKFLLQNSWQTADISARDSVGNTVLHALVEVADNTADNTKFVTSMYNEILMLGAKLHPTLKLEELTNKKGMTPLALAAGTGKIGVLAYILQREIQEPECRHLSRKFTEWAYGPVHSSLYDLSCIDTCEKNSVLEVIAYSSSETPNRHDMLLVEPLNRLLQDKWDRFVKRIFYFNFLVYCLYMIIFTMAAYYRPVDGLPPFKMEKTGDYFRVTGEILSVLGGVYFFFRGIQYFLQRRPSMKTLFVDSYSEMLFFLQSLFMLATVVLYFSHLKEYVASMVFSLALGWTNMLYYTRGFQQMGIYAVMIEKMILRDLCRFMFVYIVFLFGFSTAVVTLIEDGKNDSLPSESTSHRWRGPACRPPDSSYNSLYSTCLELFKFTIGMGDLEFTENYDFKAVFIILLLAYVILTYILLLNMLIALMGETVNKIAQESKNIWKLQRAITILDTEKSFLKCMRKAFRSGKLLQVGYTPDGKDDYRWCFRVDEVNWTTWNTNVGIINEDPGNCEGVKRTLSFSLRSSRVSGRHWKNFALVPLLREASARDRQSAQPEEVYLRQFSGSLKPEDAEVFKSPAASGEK
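TRPV1-expressing cells were cultured overnight at 35.5C and loaded with Fluo-8 calcium dye for 40 to 90 min at room temperature. After a 10 s baseline, compound was added and calcium influx was read kinetically for 3 min (ex 480/em 520 nm).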
ClpP mod: qHTS Assay for Activators of ClpP | Potency, µM (doses to about 57.5 µM), inactives show at the top dose activity change, negative = active | purified B. subtilis ClpP, FRET peptide cleavage, 20 min | 340,000 compounds, 1.9% hits | ATP-dependent Clp protease proteolytic subunit (Bacillus subtilis (strain 168)), P80244; active = well fitted falling curve with a large enough effect; inconclusive = small, poorly fitted or top-dose-only effect; inactive = no such curve, though single readings can be large or run the other way; note: potency is the fitted concentration of half-maximal effect; the source files actives as falling curves though it sought activators and does not explain the sign; nearly all actives have a fitted effect of over 65% in size; many hits overshoot -100%
Target sequence (P80244 whole entry, looked up): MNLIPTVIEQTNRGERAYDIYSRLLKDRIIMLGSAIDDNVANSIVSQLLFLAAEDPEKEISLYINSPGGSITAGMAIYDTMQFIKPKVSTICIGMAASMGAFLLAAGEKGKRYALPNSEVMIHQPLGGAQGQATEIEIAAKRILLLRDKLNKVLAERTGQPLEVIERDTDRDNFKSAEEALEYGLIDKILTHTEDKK
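FRET quenching reversal measured ClpP activation: 10 microg/mL B. subtilis ClpP at pH 8 with the FRET-FV decapeptide, read at 430 nm after 320 nm excitation. The 20-min minus 0-min signal was scaled between DMSO/no-enzyme wells and ADEP (5.8 microM final).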
* hit, by the source's call; ? = inconclusive; · = no result given; & = joins results of further samples; [ ] = another dose, or the depositor's remark.

Structure | gsp agonist | Sfp inh | D2 PAM | Menin MLL FP FL | gsp antagonist | TRPV1 PAM | ClpP mod
O=C(COC(=O)COc1ccccc1[N+](=O)[O-])Nc1ccccc1Br | -6%[15.4 µM] | -12% | -2 | 2.6 | 10% | 8 | -0.8%
O=C(CCN1CCc2ccccc2C(O)(c2ccccc2)C1)c1ccc2c(c1)OCCO2 (stereo not given) | 10% | · | -27 | · | 21% | · | 6.7%
CCn1ccnc1CN(C)C(=O)C1CCC(=O)N(Cc2cccc(F)c2)C1 (stereo not given) | -1% | 15% | -14 | -9.7 | 13% | 1 | -1.6%
COc1cccc(/C=N/NC(=O)CCC(=O)Nc2ccc(Br)cc2)c1 | 25% | -1% | -10 | -6.6 | 8% | -7 | -0.1%
CN(C)S(=O)(=O)c1ccc(C(=O)Nc2nnc(-c3cccs3)o2)cc1 | 4% | 10% | -6 | -3.1 | -17% | 3 | -2.6%
COc1cccc(CC(=O)N(CCC2=CCCCC2)c2c(N)n(Cc3ccccc3)c(=O)[nH]c2=O)c1 | -9% | · | -11 | · | -4% | 7 | -3.3%
Cc1cc(C)c(N(C(=O)c2csnn2)C(C(=O)NC2CCCC2)c2ccncc2)c(C)c1 (stereo not given) | 33%[15.4 µM] | 20% | -5 | · | -18% | 3 | -1.2%
COc1ccc(C(=O)NNC(=S)NC(=O)/C=C/c2cccs2)cc1 | -14% | 1% | -3 | -2.5 | -2% | -4 | ·
CC1=C(C(=O)N2CCOCC2)CC(CC(=O)NCCc2ccccn2)C(=O)N1Cc1ccc(C(C)(C)C)cc1 (stereo not given) | -47%[inhibitor] | · | 2 | · | · | · | 1.4%
COC(=O)c1c(NC(=O)c2ccco2)sc(C(=O)N(C)C)c1C | 20% | -12% | -12 | 5.1 | 5% | -7 | -3.4%
O=c1nc(N2CCOCC2)nc(N/N=C/c2ccc3c(c2)OCO3)[nH]1 | -1%[15.4 µM] | -13% | 1 | -2.8 | 12% | -11 | ·
O=S1(=O)CCOC[C@H](CC2CCCCC2)N1Cc1ccccc1F | · | -3% | -18 | -1.5 | -10% | 2 | 0.7%&1.6%
Nc1c(-c2ccccc2)cnn1-c1ccc(C(=O)O)cc1 | 2% | -1% | -3 | -0.3 | -13% | -7 | -2.8%
CCN(CC)S(=O)(=O)c1ccc(C(=O)NCC2(N3CCOCC3)CCCCC2)cc1 | 4% | · | -10 | · | -2% | 3 | -15%
COc1ccc(-c2[nH]ncc2CN2CCC(OCc3ccccc3)CC2)c(F)c1 | -3% | 5% | -15 | -2.3 | 2% | 0 | ·
COC(C[C@@H]1O[C@@H]1[C@H](O)COCc1ccccc1)OC | · | 23% | -3 | -0.6 | -7% | -29 | -1.1%
CCCCC(=O)Nc1ccccc1C(C)C | · | 13% | · | 2.3 | · | 27 | ·
CN(C)CCCN1C(=O)c2cccc3c(Br)ccc(c23)C1=O | 27% | -18% | -1 | ? | 6% | ? | -24%
O=C(Nc1ccc(O)c(-c2nc3ccccc3o2)c1)C1(c2ccc(Cl)cc2)CCCC1 | 11% | -16% | 11 | -1.8 | 9% | -30 | -3.7%
O=C(Nc1cc([N+](=O)[O-])ccc1F)C1CC1 | 7% | 6% | 7 | 6.5 | -5% | 6 | -3.8%
O=C(Nc1nccs1)c1ccc(Br)cc1 | ? | 29% | -3 | 4.0 | -1% | -4 | -1.8%
Cc1ccc(NC(=O)Cc2nnc(SCC(=O)NC3CCCC3)n2C)cc1C | ? | 12% | -6 | · | 7% | 2 | 0.9%
NCCNc1cc(N2CCCC2)ccc1[N+](=O)[O-] | -51%[inhibitor] | 8% | -12 | 1.5 | -8% | 5 | ·
Cc1cc(C)cc(CSCC(=O)N/N=C/c2ccc(OCC(=O)NCc3ccco3)cc2)c1 | -21% | ? | -1 | 5.4 | -24% | · | 2.2%
C[C@@H](C(=O)CC(=O)OC(C)(C)C)[C@@H](O)c1c(F)cccc1Cl | -24% | -2%&3% | -6 | -4.0&5.2 | 1% | -8 | -1.5%
C=CCN1CCN(C(=O)CCCc2ccccc2)CC1 | -10% | 13% | -9 | 6.8 | 14% | -2 | ·
COc1ccc(/C=C/C(=O)N2CCC(C(N)=O)CC2)cc1S(=O)(=O)N1CCOCC1 | -8%[15.4 µM] | ? | -5 | -0.2 | -9% | 2 | -0.2%
CC(C)Oc1ccc(S(=O)(=O)N2CCOCC2)cc1NC(=O)C1CCC1 | -28% | · | -23 | · | 5% | -16 | 1.4%
CC(C)c1ccc(NC(=O)c2cc3c(=O)n(C)c4ccccc4c3n2C)cc1 | 0%[15.4 µM] | -27% | 2 | 2.0 | -7% | 0 | ·
CC1CN(C(=O)c2cccc(S(=O)(=O)NCc3ccccc3)c2)CC(C)O1 (stereo not given) | 0% | · | 4 | · | 5% | -3 | 2.1%
COc1cc(CN2CCCC(N3CCN(c4ccccc4C)CC3)C2)ccc1O (stereo not given) | -4%[15.4 µM] | 16% | -15 | -0.2 | 2% | -21 | 0.8%
CCN(C(=O)c1ccncc1)c1c(N)n(Cc2ccccc2)c(=O)[nH]c1=O | -73%[inhibitor] | · | -6 | · | 7% | 1 | -24%
Cc1ccc(S(=O)(=O)N2CCC(C(=O)NCc3ccccc3CN3CCCC3)CC2)cc1 | 5% | · | -7 | · | 13% | · | -0.2%
CCN(CC(=O)NCc1cccs1)C(=O)c1ccc(S(=O)(=O)Nc2ccccc2F)cc1 | ? | · | -3 | · | -16% | -13 | -0.3%
CC(C)c1ccc(S(=O)(=O)N2CCN(C(=O)Cc3ccsc3)CC2)cc1 | 16% | · | -24 | · | -17% | 7 | -4.7%
Cc1ccc(-c2cc(=O)[nH][nH]2)c(C)c1 | 17% | 17% | -10 | 1.3 | 4% | 11 | 0.7%
CCOC(=O)c1c(NC(=O)COC(=O)c2cnccn2)sc(C(=O)NC)c1C | -2% | · | -14 | · | -10% | -3 | -4.7%
Cc1csc(C(C#N)C(=O)c2ccc(S(=O)(=O)N3CCCC3)cc2)n1 (stereo not given) | -35%[inhibitor] | 2% | -8 | 9.1 | ? | 14 | 0.0%
COC(=O)c1ccc(COc2ccccc2OC)o1 | ? | 9% | 2 | 5.5 | 8% | -1 | -1.2%
COc1ccccc1OCC(=O)Nc1cc(NC(=O)COc2ccccc2OC)cc(C(=O)O)c1 | 4%[15.4 µM] | 12% | 1 | 0.0 | -13% | 0 | -0.8%

Six compounds already listed, arranged by the value under D2 PAM, high to low.
SMILES,gsp agonist,Sfp inh,D2 PAM,Menin MLL FP FL
COC(=O)c1ccc(COc2ccccc2OC)o1,?,9%,2,5.5
COc1ccccc1OCC(=O)Nc1cc(NC(=O)COc2ccccc2OC)cc(C(=O)O)c1,4%[15.4 µM],12%,1,0.0
Cc1ccc(S(=O)(=O)N2CCC(C(=O)NCc3ccccc3CN3CCCC3)CC2)cc1,5%,·,-7,·
Cc1ccc(-c2cc(=O)[nH][nH]2)c(C)c1,17%,17%,-10,1.3
COc1cc(CN2CCCC(N3CCN(c4ccccc4C)CC3)C2)ccc1O (stereo not given),-4%[15.4 µM],16%,-15,-0.2
CC(C)c1ccc(S(=O)(=O)N2CCN(C(=O)Cc3ccsc3)CC2)cc1,16%,·,-24,·

Remaining list, next part.
Structure | gsp agonist | Sfp inh | D2 PAM | Menin MLL FP FL | gsp antagonist | TRPV1 PAM | ClpP mod
COCCNC(=O)c1cn(C)c2ccc(S(=O)(=O)N3CCCCC3)cc2c1=O | 4% | 3% | -1 | · | -6% | 27 | -0.4%
O=C(CCC(=O)N1CCN(c2ccc(O)cc2)CC1)c1cccs1 | 6% | 25µM* | 5 | -0.5 | -9% | -14 | 0.3%
CCCC(=O)C1=C(O)C(C(=O)OC)C(C)(C)CC1=Nc1cccc([N+](=O)[O-])c1 (stereo not given) | 4% | 16% | -1 | 4.8 | -11% | -16 | -5.0%
O=C1c2ccccc2C(Nc2ccc3c(c2)OCCO3)N1c1ccc(Cl)cn1 (stereo not given) | 15% | -3% | 0 | 4.1 | -22% | -6 | -0.6%
CC1CCCCN1Cc1c(O)ccc2c(=O)c(-c3nc4ccccc4s3)c(N)oc12 (stereo not given) | -11%[15.4 µM] | ? | -2 | 11 | -11% | -17 | ·
CC(=O)c1ccc(N2CCN(CC(=O)NCc3ccccc3)CC2)cc1 | 1% | 14% | -7 | 3.3 | -11% | -9 | -3.6%
Cc1nc(NC(=O)c2ccccc2)nc2cc3c(cc12)OCO3 | -2% | -5% | -3 | 0.8 | 7% | -1 | -2.3%
O=[N+]([O-])c1ccc(-n2cc(-c3ccccc3)nn2)cc1 | -17% | 9% | 1 | 4.4 | 0% | -4 | 0.4%
COc1ccc(/C=C/C(=O)NCC(=O)N/N=C(/CCC(=O)O)c2ccccc2)cc1 | 2%[15.4 µM] | 8% | -3 | -1.5 | 3% | 24 | ·
Cc1cc2c(c(=O)n1Cc1cccnc1)C(c1cccs1)C(C#N)=C(N)O2 (stereo not given) | 12% | 79µM* | -27 | ? | ? | 3 | -3.2%
CN(C)/C=C/c1c([N+](=O)[O-])c2ccc(O)cc2n1-c1ccccc1 | -14%[15.4 µM] | 2.5µM* | 5 | 3.9 | ? | · | ·
COc1ccc(S(=O)(=O)Nc2nc3c(s2)C(=O)CC(C)(C)C3)cc1 | 18% | 16% | 1 | -4.0 | 4% | 23 | ·
COc1ccc(C(=O)Nc2cccc(C(=O)NCc3ccco3)c2)cc1 | -3%[15.4 µM] | 24% | -14 | -2.5 | -2% | 11 | 0.7%

2 entries picked at random from those above, as already listed:
Structure | gsp agonist | Sfp inh | D2 PAM | Menin MLL FP FL | gsp antagonist | TRPV1 PAM | ClpP mod
O=C(Nc1nccs1)c1ccc(Br)cc1 | ? | 29% | -3 | 4.0 | -1% | -4 | -1.8%
CC(C)Oc1ccc(S(=O)(=O)N2CCOCC2)cc1NC(=O)C1CCC1 | -28% | · | -23 | · | 5% | -16 | 1.4%

Screens as filed in PubChem.
